A1 inhib = A1 inhibition. 21,000 tested, 0.51% active. MEF A1-2A-BIM cells, caspase-Glo luminescence, 3 h; percent of clofoctol signal, DMSO as zero. caspase activation, % (concentration not given with the values). AID 2241;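 active = most replicate scores above 10, or exactly half above 10 with mean activity above 10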;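 note: effector caspase 3 and 7 activity cleaving a DEVD luciferin substrate; 50 nL library stock added to about 30 µL; numbers are from one replicate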
BJeLR viab HTS = BJeLR cell viability reduction; BJeLR fibroblasts viability, CellTiterGlo ATP luminescence, 48 h; HRASV12, hTERT and SV40 LT/ST transformed; viability loss activity score, % (concentration not given with the values); 30,000 tested, 0.64% active; AID 2275; in the data active = viability loss activity score above about 50%; about a fifth of its hits are not listed in these tables;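 note: higher score means fewer live cells and less ATP luminescence; stock transfer was 50 or 100 nL into about 30 µL; 0% = vehicle wells and 100% = a reference killing control; one replicate is shown; the record names a cut of 85%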
* marks the source's active call; other numbers are inactive results; nt = not tested or not shown. The list is partial. The share of hits here may be higher or lower than overall.

Each structure is followed by: A1 inhib	BJeLR viab HTS
> C[C@H]1CN([C@@H](C)CO)C(=O)c2cc(NS(=O)(=O)c3cn(C)cn3)ccc2O[C@H]1CN(C)Cc1ccc2c(c1)OCO2
 : -0.5	4.2
> C[C@@H]1CN([C@@H](C)CO)C(=O)c2cccc(NC(=O)c3cnccn3)c2O[C@H]1CN(C)S(=O)(=O)c1ccc(Cl)cc1
 : nt	-3.5
> CC(C)NC(=O)N(C)C[C@@H]1Oc2ccc(NC(=O)CCCCCC(=O)Nc3ccccc3N)cc2C(=O)N([C@@H](C)CO)C[C@@H]1C
 : nt	3.1
> Cc1noc(C)c1S(=O)(=O)Nc1cccc2c1O[C@H](CN(C)C(=O)Nc1ccc(F)cc1)[C@H](C)CN([C@@H](C)CO)C2=O
 : nt	-1.0
> O=c1oc2cc(O)ccc2cc1-c1cccc(Br)c1
 : -8.7	2.4
> C[C@@H]1CN([C@H](C)CO)C(=O)c2cc(NC(=O)Nc3ccc(F)cc3)ccc2O[C@@H]1CN(C)Cc1ccc(Cl)c(Cl)c1
 : -0.3	-2.7
> CC(C)(C)C(=O)CSc1nc2c(sc(=S)n2CCc2ccccc2)c(=O)n1Cc1ccco1
 : -1.7	0.5
> CCCN1CC=C2C(C#N)=C(N)C(C#N)(C#N)C3(C(=O)Nc4ccccc43)C2C1 (centres undefined)
 : 0.3	17.2
> C[C@H]1CN([C@@H](C)CO)C(=O)c2cc(NS(=O)(=O)c3cn(C)cn3)ccc2O[C@H]1CN(C)C(=O)NC1CCCCC1
 : 1.1	-4.5
> CCOc1ccccc1C(=O)N1CCN(C(c2ccccc2)c2ccccc2)CC1
 : 1.8	1.8
> O=c1c2ccccc2nc(SCc2ccccc2F)n1CCc1ccccc1
 : -1.7	0.5
> COc1ccc(CCNC(=O)c2cc3ccccc3c(=O)o2)cc1OC
 : 0.0	-5.8
> COC(=O)c1nnn(CC(=O)Nc2ccccc2)c1C(=O)OC
 : nt	-3.5
> COC(=O)CSc1nc2sc3c(c2c(=O)n1-c1ccccc1)CCC3
 : nt	-2.1
> COc1ccc(CN(C)C[C@@H]2Oc3ccc(NS(=O)(=O)c4ccc(C)cc4)cc3C(=O)N([C@H](C)CO)C[C@H]2C)cc1
 : -0.1	7.7
> C[C@H]1CN([C@@H](C)CO)C(=O)c2cc(NC(=O)Nc3ccc(C(F)(F)F)cc3)ccc2O[C@@H]1CN(C)C
 : 0.3	-2.8
> O=C1N(C2CCCCC2)C(=NC2CCCCC2)SC12CC2
 : -0.7	-3.6
> Cn1nc(C(=O)O)c2ccccc2c1=O
 : 0.4	0.8
> CC(=O)NCc1nc2ccccc2n1Cc1ccccc1
 : -0.3	-1.7
> COc1ccccc1COc1ccc2c3c(c(=O)oc2c1C)CCCCC3
 : -1.2	0.7
> Cc1cc(C)n2nc(CC(=O)NC3CCCCCCC3)nc2n1
 : 1.6	1.4
> CCN(C(=O)C(C)Oc1ccccc1)c1ccccc1C (centres undefined)
 : -0.5	1.2
> CCOC(=O)c1cnc(S/C=C/C(=O)c2ccc(Cl)cc2)nc1N
 : 2.9	36.2
> CC(C)OC(=O)c1cccnc1SCc1cc(=O)n2ccccc2n1
 : 0.1	7.6
> CCN1C(=O)C(CC(=O)Nc2ccc(Br)cc2)N(CCNC(C)=O)C1=S (centres undefined)
 : nt	-4.6
> CC(=O)Nc1ccccc1OCCN(Cc1ccccc1)C(=O)c1ccc(Cl)cc1
 : nt	1.7
> Cc1ccc(Nc2cc(C(=O)NCCC3=CCCCC3)c3ccccc3n2)c(C)c1
 : nt	-0.5
> Cc1ccc(-n2nc(C)c3c(C)c(CCC(=O)NCc4cccs4)c(C)nc32)cc1
 : 0.6	2.9
> C[C@H](CO)N1C[C@H](C)[C@H](CN(C)S(=O)(=O)c2cn(C)cn2)Oc2c(NC(=O)C3CC3)cccc2C1=O
 : nt	-6.6
> O=C(c1ccccc1)C1CN(C2CCS(=O)(=O)C2)CCC1(O)c1ccccc1 (centres undefined)
 : 0.2	-4.8

The list continues:
Each structure is followed by: A1 inhib	BJeLR viab HTS
> C/C(=C\C=C\c1ccccc1)C(=O)c1c(C)cc(C)[nH]c1=O
 : nt	4.3
> COc1ccc(NC(=O)N(C)C[C@@H]2Oc3c(NC(=O)Nc4ccc5c(c4)OCO5)cccc3C(=O)N([C@H](C)CO)C[C@H]2C)cc1
 : nt	1.2
> CCOC(OCC)P(=O)(O)CCCNCc1ccc(Cl)c(Cl)c1
 : -1.2	28.8
> C=CCc1ccc(O[C@@H]2O[C@H](CO)[C@@H](O)[C@H](O)[C@H]2O)c(O[C@@H]2O[C@H](CO)[C@@H](O)[C@H](O)[C@H]2O)c1
 : -0.4	70.0*
> Cc1cc(C)n(CCc2nc3c4ccccc4n(Cc4ccc(Cl)cc4)c(=O)n3n2)n1
 : -0.4	-4.9
> O=c1cc(-c2ccc(O)cc2)oc2cc(O[C@@H]3O[C@H](CO)[C@@H](O)[C@H](O)[C@H]3O[C@H]3OC[C@](O)(CO)[C@H]3O)ccc12
 : -0.2	-3.2
> Cc1ccc(S(=O)(=O)N(C)C[C@H]2Oc3ccc(NS(=O)(=O)c4ccc(Cl)cc4)cc3C(=O)N([C@@H](C)CO)C[C@H]2C)cc1
 : -0.9	0.1
> O=C(c1ccccc1)C(CC(=O)N1CCOCC1)c1ccccc1 (centres undefined)
 : 0.0	-1.4
> C[C@H]1CN([C@@H](C)CO)C(=O)c2cccc(NS(=O)(=O)c3ccccc3)c2O[C@@H]1CN(C)S(=O)(=O)c1ccccc1
 : nt	1.5
> COc1ccc(NC(=O)Nc2ccc3c(c2)C(=O)N([C@H](C)CO)C[C@@H](C)[C@@H](CN(C)Cc2ccccc2)O3)cc1
 : -0.1	0.7
> C[C@H]1CN([C@@H](C)CO)C(=O)c2cc(NS(=O)(=O)c3ccc(F)cc3)ccc2O[C@H]1CN(C)C(=O)Nc1ccccc1
 : 0.6	1.8
> Cc1cc(C)n2nc(SC(C)C(=O)NC3CCCCCCC3)nc2n1 (centres undefined)
 : 0.9	-1.5
> N#CCSC1=Nc2ccccc2C2=NC(CCC(=O)NC3CCCCC3)C(=O)N12 (centres undefined)
 : 1.1	-3.8
> C[C@@H]1CN([C@@H](C)CO)C(=O)c2cc(NC(=O)Nc3ccc4c(c3)OCO4)ccc2O[C@H]1CN(C)S(=O)(=O)c1ccc(F)cc1
 : 0.3	-3.7
> N#CCSc1nc2ccccc2c(=O)n1CCCn1c(SCC#N)nc2ccccc2c1=O
 : nt	-0.4
> C[C@@H]1CN([C@@H](C)CO)C(=O)c2cccc(NS(=O)(=O)c3ccc(F)cc3)c2O[C@H]1CN(C)C(=O)Nc1ccc2c(c1)OCO2
 : nt	5.5
> C[C@H]1CN([C@@H](C)CO)C(=O)c2cc(NC(=O)Cc3ccccc3)ccc2O[C@@H]1CN(C)C(=O)Nc1ccccc1
 : 0.4	0.3
> C[C@H]1CN([C@@H](C)CO)C(=O)c2cccc(NC(=O)C3CCCCC3)c2O[C@@H]1CN(C)C(=O)NC1CCCCC1
 : nt	-7.0
> Cc1ccc(S(=O)(=O)N(C)C[C@H]2Oc3c(NC(=O)Nc4c(C)noc4C)cccc3C(=O)N([C@@H](C)CO)C[C@@H]2C)cc1
 : nt	-5.4
> COc1ccc(S(=O)(=O)Nc2cccc3c2O[C@H](CN(C)Cc2ccncc2)[C@H](C)CN([C@@H](C)CO)C3=O)cc1
 : nt	2.6
> Cn1c(=O)cc(SCC(=O)NCC2CCCO2)c2ccccc21 (centres undefined)
 : nt	-0.4
> CCC(C)NC(=O)c1cnn2c(C(F)(F)F)cc(-c3ccccc3)nc12 (centres undefined)
 : -0.5	-0.8
> Cc1noc(C)c1S(=O)(=O)Nc1ccc2c(c1)C(=O)N([C@@H](C)CO)C[C@H](C)[C@H](CN(C)S(=O)(=O)c1ccc(Cl)cc1)O2
 : 0.6	-3.8
> Cc1noc(C)c1NC(=O)Nc1cccc2c1O[C@H](CN(C)Cc1ccc(C(F)(F)F)cc1)[C@@H](C)CN([C@@H](C)CO)C2=O
 : nt	2.9
> Cc1ccc(NC(=O)CC(c2ccccc2)c2ccccc2)cc1C
 : -0.5	0.9
> COc1ccc(NC(=O)Nc2ccc3c(c2)C(=O)N([C@H](C)CO)C[C@H](C)[C@@H](CN(C)S(=O)(=O)c2ccccc2)O3)cc1
 : 0.0	-3.7
> CCOC(=O)Nc1nc2ccc(OC)cc2s1
 : -3.8	-3.0
> O=c1cc(-c2ccccc2)n(-c2ccccc2)cn1
 : -0.3	1.8
> C[C@H]1CN([C@@H](C)CO)C(=O)c2cc(NC(=O)c3ccncc3)ccc2O[C@H]1CN(C)Cc1ccc(-c2ccccc2)cc1
 : 0.4	-4.9
> CCCCn1c(=O)c2ccccc2c2ccccc2c1=O
 : nt	4.8

Ordered by molecular weight (smallest number first): part of the list above
Each structure is followed by: A1 inhib	BJeLR viab HTS
> C[C@H]1CN([C@@H](C)CO)C(=O)c2cccc(NC(=O)C3CCCCC3)c2O[C@@H]1CN(C)C(=O)NC1CCCCC1
 : nt	-7.0
> Cc1noc(C)c1NC(=O)Nc1cccc2c1O[C@H](CN(C)Cc1ccc(C(F)(F)F)cc1)[C@@H](C)CN([C@@H](C)CO)C2=O
 : nt	2.9
> C[C@@H]1CN([C@@H](C)CO)C(=O)c2cc(NC(=O)Nc3ccc4c(c3)OCO4)ccc2O[C@H]1CN(C)S(=O)(=O)c1ccc(F)cc1
 : 0.3	-3.7

More results:
Each structure is followed by: A1 inhib	BJeLR viab HTS
> C[C@H]1CN([C@@H](C)CO)C(=O)c2cccc(NC(=O)C3CCOCC3)c2O[C@H]1CN(C)C(=O)Nc1ccccc1
 : nt	-1.6
> C[C@H]1CN([C@@H](C)CO)C(=O)c2cc(NS(C)(=O)=O)ccc2O[C@H]1CN(C)C
 : 0.3	1.8
> O=C(NCc1ccco1)c1cccc2c1C(=O)N(Cc1cccnc1)C2
 : nt	-3.3
> CN(C)CCNC(=O)c1ccc2c(c1)N(Cc1ccccc1)C(=O)CS2
 : 1.0	-0.4
> C[C@@H]1CN([C@@H](C)CO)C(=O)c2cc(NC(=O)C3CC3)ccc2O[C@@H]1CN(C)Cc1ccc(-c2ccccc2)cc1
 : -0.6	4.4
> Cc1cccc(C)c1NC(=O)C1(N(Cc2ccco2)C(=O)Cc2nc(N)n[nH]2)CCCCC1
 : 0.5	-0.8
> CC1CN(C(=O)CCC(=O)N2CCC(C(N)=O)CC2)c2ccccc2O1 (centres undefined)
 : 0.3	2.6
> CCOC(=O)CCN1N=C(c2ccc(CC)cc2)CCC1=O
 : -0.3	-4.0
> C=C(C)[C@@H]1CC[C@]2(C(=O)O)CC[C@]3(C)[C@H](CCC4[C@@]5(C)CCC(=O)C(C)(C)C5C(O)C[C@]43C)C12 (some centres undefined)
 : 0.3	3.3
> NC(=S)NN1C2CSC1CS2
 : -0.2	-0.7
> C[C@H](CO)N1C[C@H](C)[C@@H](CN(C)Cc2ccncc2)Oc2ccc(NC(=O)CCCCCC(=O)Nc3ccccc3N)cc2C1=O
 : nt	-1.0
> CCOC(=O)c1cnc2ccc(Cl)cc2c1Nc1ccc(S(=O)(=O)Nc2ncccn2)cc1
 : -0.1	-3.3
> N/C(CC(=O)Nc1cccc(C(F)(F)F)c1)=N/O
 : 0.1	-0.5
> COc1ccc(CN(C)C[C@H]2Oc3c(NS(C)(=O)=O)cccc3C(=O)N([C@H](C)CO)C[C@@H]2C)cc1
 : nt	-2.0
> C[C@]12CCC3c4ccc(OS(=O)(=O)O)cc4CCC3C1CC[C@H]2O (some centres undefined)
 : -0.3	-4.6
> Cc1oc(C(=O)O)cc1COc1ccc2c3c(c(=O)oc2c1)CCCC3
 : -4.2	-3.0
> Cc1ccc(OCCSc2nc(N)cc(N)n2)c(C(C)C)c1
 : 0.3	-2.2
> COc1ccc(NC(=O)N(C)C[C@H]2Oc3c(NS(=O)(=O)c4ccc(C)cc4)cccc3C(=O)N([C@H](C)CO)C[C@@H]2C)cc1
 : nt	-1.5
> Cc1cc(C)c2nc(N3CCCC(C(=O)NC4CCCc5ccccc54)C3)sc2c1 (centres undefined)
 : -0.1	-3.8
> COc1ccc(-c2nc3ccc4ccccc4c3c3c2CCC3)cc1
 : 0.1	-2.0
> C[C@@H]1CN([C@@H](C)CO)C(=O)c2cccc(NC(=O)c3ccncc3)c2O[C@H]1CN(C)C(=O)Nc1ccc(F)cc1
 : nt	-8.1
> CCNS(=O)(=O)c1ccc(NC(=O)c2ccc(Cn3cc(Br)cn3)o2)cc1
 : nt	1.4
> CCOc1cc2[nH]c(=S)n(CCCC(=O)O)c(=O)c2cc1OCC
 : 1.6	-3.5
> OCC1(CO)COC(COc2ccccc2)=N1
 : 0.9	-2.7
> C[C@H]1CN([C@@H](C)CO)C(=O)c2cc(NS(C)(=O)=O)ccc2O[C@@H]1CN(C)Cc1ccc(Cl)c(Cl)c1
 : 1.2	1.7
> CC(C)(CO)NC(=O)c1cc(-c2ccc(F)cc2)no1
 : -0.1	-4.3
> CCOC(=O)c1nn(-c2ccccc2)c2nc(Nc3ccc(C)cc3)cc(=O)n12
 : -1.4	12.8
> CCOC(=O)c1sc2c(c1O)c(=O)n(-c1ccccc1)c(=S)n2-c1ccccc1
 : 4.2	1.7
> COc1cc(C(=O)OC[C@@]2(O)CO[C@H](OC3C(CO)OC(OC(C)/C=C/C4(O)C(C)CC(O)CC4(C)C)C(O)C3O)[C@@H]2O)cc(OC)c1O (some centres undefined)
 : 0.1	-0.1
> Cc1noc(C)c1NC(=O)N(C)C[C@H]1Oc2ccc(NS(=O)(=O)c3c(C)noc3C)cc2C(=O)N([C@@H](C)CO)C[C@@H]1C
 : 1.0	-0.1

Shown as labelled records: part of the list above.
C[C@H]1CN([C@@H](C)CO)C(=O)c2cc(NC(=O)Cc3ccccc3)ccc2O[C@@H]1CN(C)C(=O)Nc1ccccc1
  A1 inhib: 0.4
  BJeLR viab HTS: 0.3
C[C@@H]1CN([C@@H](C)CO)C(=O)c2cccc(NC(=O)c3ccncc3)c2O[C@H]1CN(C)C(=O)Nc1ccc(F)cc1
  A1 inhib: nt
  BJeLR viab HTS: -8.1
